A1 inh: inhibitors of the anti-apoptotic protein A1, read as caspase activation; MEF A1-2A-BIM cells, Caspase-Glo 3/7 luminescence, 3 h; percent of clofoctol response, vehicle zero; caspase activation, % (concentration not given with the values); 0.066% of 330,000 active; AID 2462;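 active = over half of replicate activation scores above 10%, or exactly half above 10 with the replicate mean above 10; inconclusive = replicate mean below 10 yet half the replicates above 10; inactive = over half of replicates below 10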;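 note: wells of about 30 µL received 50 nL stock; many hits fall short of the cut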
Calb FLC: C. albicans growth modulation with fluconazole | growth inhibition, % (no concentration beside the values) | 0.57% of 300,000 active | C. albicans CaCi-2 (fluconazole-resistant clinical isolate) + fluconazole, Alamar Blue growth, 48 h | AID 1979;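 active = most replicates above 75%; inconclusive = exactly half above 75%; inactive = most below 75%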;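 note: all wells also contain fluconazole at 8 µg/ml as a sub-toxic cotreatment; 0% = median of DMSO wells and 100% = median of geldanamycin control wells; wells of about 8 µL received 7.5 nL stock; the first replicate is given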
T cruzi inh: T. cruzi replication inhibition | inhibition, % (concentration not given with the values) | 1.4% of 300,000 active | AID 1885 | T. cruzi beta-gal in NIH3T3, luminescence, 90 h;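 active = mean inhibition across valid replicates above about 55%, limit read from the data; inconclusive = mean below that limit but half or more replicates reach it; inactive = mean below it, under half of replicates reach it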;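 note: signal also drops with host cell toxicity which is not excluded here; 0% = plate median of DMSO wells and 100% = zero luminescence signal; higher percent means less beta-gal luminescence so fewer parasites; stock transfer was 50 nL into about 50 µL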
LANA-H2B inh: blocks KSHV LANA binding to histone H2A/H2B | Q9QR71 | cell-free LANA-H2A/H2B peptide, fluorescence polarization | inhibition, % (concentration not given with the values) | 0.6% of 320,000 active | AID 2629; in the data active = inhibition mostly above about 10%, no sharp cut-off; inactive = mostly below about 6.7%;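 note: stock transfer was 7.5 nL into about 10 µL; 0% = median of vehicle wells and 100% = median of positive control wells; one replicate is shown; the record names a cut of 25% in any replicate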
RanGTP-Imp inh: inhibitors of RanGTP-importin-beta interaction, primary screen, biochemical, FRET, CFP-Ran, YFP-importin-beta, homogeneous; cell-free CFP-Ran/YFP-importin-beta FRET ratio; inhibition, % (concentration not given with the values); 1.1% of 300,000 active; AID 2216;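 active = most replicates above 15%; inconclusive = exactly half above 15%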;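 note: 0% = DMSO wells and 100% = Ran loaded with GDP instead of GTP; wells of about 40 µL received 100 nL stock; the first replicate is given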
MLL AF4-AF9 inh: inhibitors of human MLL-AF4/AF9 interaction. AlphaScreen, biotin-AF4 peptide binding to FLAG-AF9. P42568. inhibition, % at 10 µM. 0.47% of 350,000 active;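 active = every replicate reaching a set inhibition limit, whatever the replicate mean, cut at about 25% in these data; inconclusive = mean inhibition reaches that limit but some replicates miss it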;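 note: 0% = plate neutral control median and 100% = total signal loss; the record names both 10 and 1 µM as test concentration; the first replicate is given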
Target sequence (P42568 whole entry, looked up): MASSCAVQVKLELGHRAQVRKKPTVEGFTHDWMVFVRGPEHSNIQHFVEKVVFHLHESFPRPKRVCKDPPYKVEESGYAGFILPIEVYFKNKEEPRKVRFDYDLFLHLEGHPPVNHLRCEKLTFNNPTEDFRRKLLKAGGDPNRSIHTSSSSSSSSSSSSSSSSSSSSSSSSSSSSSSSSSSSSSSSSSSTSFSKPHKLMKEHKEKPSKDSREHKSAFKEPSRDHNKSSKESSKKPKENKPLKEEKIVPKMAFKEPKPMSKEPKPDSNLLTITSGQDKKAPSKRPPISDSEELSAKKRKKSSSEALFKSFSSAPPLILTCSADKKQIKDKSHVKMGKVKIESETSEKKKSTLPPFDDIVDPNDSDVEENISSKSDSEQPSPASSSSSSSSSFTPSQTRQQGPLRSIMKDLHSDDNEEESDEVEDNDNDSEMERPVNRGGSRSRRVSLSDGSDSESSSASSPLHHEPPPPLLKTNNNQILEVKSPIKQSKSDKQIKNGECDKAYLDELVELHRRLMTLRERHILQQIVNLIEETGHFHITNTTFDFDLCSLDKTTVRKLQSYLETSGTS
Vif TR-FRET: HIV-1 Vif–A3G interaction blockers – biochemical, TR-FRET, GST-Vif 1-94, biotin-A3G peptide, dose response retest, primary screen (AID 1117319); TR-FRET GST-Vif / biotin-A3G peptide binding; higher % means a stronger effect; test concentration not given here; strong numbers were not always called active; one-dose inhibition, %; IC50 in µM for titrated hits; 0.57% of 260,000 active;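 active = above the screen mean plus three standard deviations and confirmed in dose response; inconclusive = results disagree or hit not tested in dose response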;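 note: Vif residues 1-94 fused to GST binding biotinylated APOBEC3G peptide 110-148; 0% = full assay without inhibitor and 100% = GST in place of GST-Vif; retest series ran down from 100 µM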
Beta apoptosis: beta cell apoptosis inhibition. INS-1E cytokine-induced death, ATP luminescence, 48 h; percent of positive-control rescue, neutral wells zero. protection from apoptosis, % (no concentration beside the values). 0.8% of 300,000 active;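 active = all replicates at 75% or more, or half of them and the mean; inconclusive = half reach 75% but not the mean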;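 note: 0% = cytokine-treated negative control wells and 100% = positive control rescue; higher means more ATP so stronger rescue from cytokine killing; wells of about 40 µL received 100 nL stock; the first replicate is given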
* hit, by the source's call.

`COc1cc2c(cc1OC)CN(C(=O)C1CCCN(C(=O)c3ccc(Cl)cc3)C1)CC2` (stereo not drawn) gave A1 inh -0.6, LANA-H2B inh 2.5, MLL AF4-AF9 inh -0.9, Vif TR-FRET 11% and Beta apoptosis -1.
`Cc1ccccc1Nc1ncnc(N)n1` gave A1 inh 0.5, Calb FLC -2, T cruzi inh -5, LANA-H2B inh 5.8, RanGTP-Imp inh 12, MLL AF4-AF9 inh -5.0, Vif TR-FRET 0% and Beta apoptosis -7.
`COc1cccc(OCC(O)CNC(=O)c2oc3c(C)c(C)ccc3c2C)c1` (stereo not drawn) gave A1 inh 0.2, Calb FLC 7, T cruzi inh 15, LANA-H2B inh -4.8, RanGTP-Imp inh 0.8, MLL AF4-AF9 inh 0.2 and Beta apoptosis -4.
`COc1ccc(S(=O)(=O)N2CCCCC2)cc1NC(=O)CSc1nccn1C` gave A1 inh 1.2, Calb FLC 3, T cruzi inh 11, LANA-H2B inh -0.8, RanGTP-Imp inh -0.5, MLL AF4-AF9 inh 1.6, Vif TR-FRET 0% and Beta apoptosis -1.
`COc1ccc(-c2cc(CCCC(=O)NCc3ccccn3)no2)cc1` gave A1 inh 0.4, Calb FLC 4, T cruzi inh 4, LANA-H2B inh 2.5, RanGTP-Imp inh -4.7, MLL AF4-AF9 inh -4.5, Vif TR-FRET -5% and Beta apoptosis -5.
Screening COc1ccc(-c2sc3ccccc3c2/C=C/c2ccncc2)cc1 returned A1 inh inconclusive, LANA-H2B inh 2.6, MLL AF4-AF9 inh 19 and Beta apoptosis -8.
For CCOc1ccc(CCNC(=O)c2ccc3c(c2)NC(=O)C2CCCN32)cc1OCC (stereo not drawn) the results were A1 inh 0.5, Calb FLC -17, T cruzi inh -23, LANA-H2B inh 1.7, RanGTP-Imp inh 0.3 and Beta apoptosis 7.
`CCc1ccc(CNc2ccc(N3CCN(C(C)=O)CC3)cc2)cc1` gave A1 inh -0.8, Calb FLC -12, T cruzi inh -1, LANA-H2B inh -1.5, RanGTP-Imp inh 0.5, Vif TR-FRET inconclusive and Beta apoptosis 0.
For COc1ccc(OC)c2sc(N3CCc4ccccc4C3)nc12 the results were A1 inh -1.7, Calb FLC 9, T cruzi inh 2, LANA-H2B inh -4.7, RanGTP-Imp inh 0.0, MLL AF4-AF9 inh 2.4, Vif TR-FRET 5% and Beta apoptosis -7.
For COc1ccc(/C=N/NC(=O)c2cccc(C(=O)N/N=C/c3ccc(OC)c(OC)c3)n2)cc1OC the results were Calb FLC -2, T cruzi inh -11, RanGTP-Imp inh -1.8, MLL AF4-AF9 inh 4.3 and Vif TR-FRET -6%.
`c1ccc(-c2csc3nnc(SCc4ccc5c(c4)OCCO5)n23)cc1` gave A1 inh -0.5, Calb FLC 2, T cruzi inh 20, LANA-H2B inh -2.4, RanGTP-Imp inh -0.5, Vif TR-FRET inconclusive and Beta apoptosis -11.
Brc1ccc(-c2nnc(SCCC3OCCCO3)o2)cc1 was read as A1 inh -0.5, Calb FLC 30, T cruzi inh 2, LANA-H2B inh 1.9, RanGTP-Imp inh 3.4, Vif TR-FRET -13% and Beta apoptosis 4.

An excerpt from above in order of count of non-hydrogen atoms, largest number first.
For COc1ccc(/C=N/NC(=O)c2cccc(C(=O)N/N=C/c3ccc(OC)c(OC)c3)n2)cc1OC the results were Calb FLC -2, T cruzi inh -11, RanGTP-Imp inh -1.8, MLL AF4-AF9 inh 4.3 and Vif TR-FRET -6%.
Screening COc1ccc(-c2sc3ccccc3c2/C=C/c2ccncc2)cc1 returned A1 inh inconclusive, LANA-H2B inh 2.6, MLL AF4-AF9 inh 19 and Beta apoptosis -8.
For COc1ccc(OC)c2sc(N3CCc4ccccc4C3)nc12 the results were A1 inh -1.7, Calb FLC 9, T cruzi inh 2, LANA-H2B inh -4.7, RanGTP-Imp inh 0.0, MLL AF4-AF9 inh 2.4, Vif TR-FRET 5% and Beta apoptosis -7.

Next section
Screening c1ccc(OCc2nn3c(-c4ccccn4)nnc3s2)cc1 returned A1 inh 0.4, Calb FLC -1, T cruzi inh -3, LANA-H2B inh 1.4, RanGTP-Imp inh 0.4, Vif TR-FRET -2% and Beta apoptosis -2.
Screening CCn1c(C(=O)N2CCC(Cc3ccccc3)CC2)cc2sccc21 returned A1 inh 1.9, Calb FLC -19, T cruzi inh 19, LANA-H2B inh -0.3, RanGTP-Imp inh 4.0, Vif TR-FRET -6% and Beta apoptosis -1.
`CCOc1ccc(N2CC(C(=O)N3CCCc4ccccc43)CC2=O)cc1` (stereo not drawn) gave A1 inh -0.5, Calb FLC 2, T cruzi inh 6, LANA-H2B inh -0.5, RanGTP-Imp inh 4.7, MLL AF4-AF9 inh -1.3 and Beta apoptosis -2.
CC(C)(C)C(=O)N1CCN(c2ccc([N+](=O)[O-])c(-n3nc(-c4ccccc4)c4ccccc4c3=O)c2)CC1 was read as A1 inh 0.1, Calb FLC -46, T cruzi inh 28, RanGTP-Imp inh 0.1, Vif TR-FRET 0% and Beta apoptosis 11.
Screening CCn1c(C)[n+](CC(O)COCC2CC=CCC2)c2ccccc21 (stereo not drawn) returned A1 inh -1.0, Calb FLC 15, T cruzi inh 29, LANA-H2B inh 2.7, RanGTP-Imp inh 2.5, Vif TR-FRET 0% and Beta apoptosis 1.
Screening COc1ccc(Nc2nc(N)nc(CSC(=S)N3CCCCC3C)n2)cc1 (stereo not drawn) returned A1 inh -0.5, Calb FLC 20, T cruzi inh 6, LANA-H2B inh 1.2, RanGTP-Imp inh 5.2, MLL AF4-AF9 inh 13, Vif TR-FRET 2% and Beta apoptosis 3.
Screening O=C(c1[nH]ncc1-c1ccccc1)C1CO1 (stereo not drawn) returned A1 inh 0.0, Calb FLC 2, T cruzi inh 7, LANA-H2B inh 8.3, RanGTP-Imp inh -0.2, MLL AF4-AF9 inh -3.7 and Beta apoptosis -13.
`COc1ccccc1C(=O)N(CN1CCCC1=O)c1cccc(Cl)c1` gave A1 inh -0.2, Calb FLC -9, T cruzi inh -2, LANA-H2B inh 6.5, RanGTP-Imp inh -0.4, Vif TR-FRET 0% and Beta apoptosis 1.
CCOC(=O)C1=C(C)NC2=C(C(=O)CC(C)(C)C2)C1c1ccsc1 (stereo not drawn) was read as A1 inh 1.4, Calb FLC -3, T cruzi inh 6, LANA-H2B inh 1.9, RanGTP-Imp inh 4.8, Vif TR-FRET 77% and Beta apoptosis 3.
For CC(NC(=O)CSc1nc(C2CC2)n(-c2ccccc2)n1)c1ccco1 (stereo not drawn) the results were A1 inh -0.1, LANA-H2B inh -1.0, MLL AF4-AF9 inh 5.0, Vif TR-FRET -3% and Beta apoptosis 0.
COc1cc(C(=O)N/N=C2\CCS(=O)(=O)c3ccc(F)cc32)cc(OC)c1OC was read as A1 inh 0.2, Calb FLC 3, T cruzi inh 4, LANA-H2B inh -3.4, RanGTP-Imp inh -0.9, MLL AF4-AF9 inh 3.9, Vif TR-FRET 2% and Beta apoptosis 1.
COc1cccc(-c2cc(C(F)(F)F)n3ncc(S(=O)(=O)c4ccccc4)c3n2)c1 was read as A1 inh 1.5, Calb FLC -3, T cruzi inh 22, LANA-H2B inh 2.5, RanGTP-Imp inh 35*, Vif TR-FRET -3% and Beta apoptosis 2.
For Cc1ccc(-c2cc(C(=O)N/N=C/c3ccco3)n[nH]2)s1 the results were A1 inh -0.1, Calb FLC 44, T cruzi inh -11, LANA-H2B inh 0.4, RanGTP-Imp inh -0.9, Vif TR-FRET 31% and Beta apoptosis 0.
CN(CC(=O)NCCc1ccc(S(N)(=O)=O)cc1)Cc1c(F)cccc1Cl was read as A1 inh -1.6, Calb FLC -1, T cruzi inh -4, LANA-H2B inh -3.4, RanGTP-Imp inh 4.1 and MLL AF4-AF9 inh 1.7.
Screening O=C(COC(=O)c1ccccc1)Nc1ccc2[nH]c(=O)[nH]c2c1 returned A1 inh 0.4, Calb FLC -6, T cruzi inh 6, LANA-H2B inh -1.9, RanGTP-Imp inh -10, MLL AF4-AF9 inh -2.4, Vif TR-FRET -7% and Beta apoptosis 3.
Cc1cc(C)nc(NS(=O)(=O)c2ccc(NC(=S)NC(=O)c3cccnc3)cc2)n1 was read as A1 inh 0.6, Calb FLC 17, T cruzi inh -4, LANA-H2B inh 1.2, RanGTP-Imp inh -1.2, MLL AF4-AF9 inh -3.5, Vif TR-FRET inconclusive and Beta apoptosis -3.
Cc1cccc(-n2c(SCC(=O)N3CCC(C(=O)O)CC3)nc3ccccc3c2=O)c1C was read as A1 inh 1.4, Calb FLC -5, T cruzi inh 6, LANA-H2B inh 0.6, RanGTP-Imp inh -3.5, MLL AF4-AF9 inh -1.8 and Beta apoptosis -8.
S=c1[nH]nc(-c2cccnc2)n1-c1ccccc1 was read as A1 inh -0.4, Calb FLC 0, T cruzi inh -18, LANA-H2B inh 1.1, RanGTP-Imp inh 2.0, MLL AF4-AF9 inh -28, Vif TR-FRET -13% and Beta apoptosis -7.
Screening CC(=O)c1ccc(NC(=O)COC(=O)Cc2ccsc2)cc1 returned A1 inh 0.9, LANA-H2B inh -1.8, MLL AF4-AF9 inh 0.3 and Beta apoptosis -9.
`COc1ccc(/C=C2\SC(N3CCCCC3)=NC2=O)cc1` gave A1 inh -0.2, Calb FLC 4, T cruzi inh 11, LANA-H2B inh 4.3, RanGTP-Imp inh 4.8, MLL AF4-AF9 inh -7.7, Vif TR-FRET -1% and Beta apoptosis -7.
Cc1ccc(OCC(=O)Nc2ccc3c(c2)C(=O)NC3=O)cc1 was read as A1 inh 0.2, Calb FLC 2, T cruzi inh -7, LANA-H2B inh 1.3, RanGTP-Imp inh inconclusive, MLL AF4-AF9 inh -8.2 and Beta apoptosis -1.
Screening Brc1cccc2sc(N3CCCC3)nc12 returned A1 inh -0.6, Calb FLC -14, T cruzi inh -6, LANA-H2B inh -0.9, RanGTP-Imp inh -0.9, MLL AF4-AF9 inh -1.2, Vif TR-FRET 20% and Beta apoptosis -6.
CCOC(=O)C1=C(C)N(C)C(=O)NC1c1ccc(C)s1 (stereo not drawn) was read as A1 inh -0.6, Calb FLC -9, T cruzi inh 2, LANA-H2B inh -1.7, RanGTP-Imp inh inconclusive and Vif TR-FRET 0%.
For O=c1cc(CSc2nnc(COc3ccccc3Cl)o2)nc2sccn12 the results were A1 inh -0.3, Calb FLC 8, T cruzi inh 19, LANA-H2B inh 1.7, RanGTP-Imp inh -2.8, MLL AF4-AF9 inh 2.8, Vif TR-FRET 4% and Beta apoptosis -5.
CCOP(=O)(c1ccccc1)C(O)c1ccccc1 (stereo not drawn) was read as A1 inh -0.6, Calb FLC -2, T cruzi inh 4, LANA-H2B inh 1.3, RanGTP-Imp inh inconclusive, Vif TR-FRET -6% and Beta apoptosis -1.
For COc1ccc(CN2CCN(C(=O)c3cc(OC)c(OC)c(OC)c3)CC2)cc1OC the results were A1 inh 0.4, Calb FLC -2, T cruzi inh 12, LANA-H2B inh -1.2, RanGTP-Imp inh -1.0, MLL AF4-AF9 inh -1.0, Vif TR-FRET 13% and Beta apoptosis -2.

Bioassay records as filed in PubChem BioAssay.
